Arbovirus anti = antivirals against arbovirus infection; arbovirus infection cell-based antiviral screen; inhibition, % at 10 µM; 200,000 compounds, 0.37% hits;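 active = inhibition from about 30%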;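 also: bluetongue infection of BSR cells; cell survival read as ATP light after 72 h; 0% = infected wells without compound and 100% = uninfected wells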
RecA intein inh = blocks M. tuberculosis RecA intein splicing; AID 2221; inhibition, %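 (about 9 µM by stock and volumes)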; cell-free RecA intein splicing, fluorescence; 290,000 compounds, 0.75% hits; in the data active = inhibition above about 30%; inconclusive = no clear call, values can overlap the other calls;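 also: 0% = vehicle wells and 100% = reference inhibitor control wells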
Target sequence (P9WHJ3 whole entry, looked up): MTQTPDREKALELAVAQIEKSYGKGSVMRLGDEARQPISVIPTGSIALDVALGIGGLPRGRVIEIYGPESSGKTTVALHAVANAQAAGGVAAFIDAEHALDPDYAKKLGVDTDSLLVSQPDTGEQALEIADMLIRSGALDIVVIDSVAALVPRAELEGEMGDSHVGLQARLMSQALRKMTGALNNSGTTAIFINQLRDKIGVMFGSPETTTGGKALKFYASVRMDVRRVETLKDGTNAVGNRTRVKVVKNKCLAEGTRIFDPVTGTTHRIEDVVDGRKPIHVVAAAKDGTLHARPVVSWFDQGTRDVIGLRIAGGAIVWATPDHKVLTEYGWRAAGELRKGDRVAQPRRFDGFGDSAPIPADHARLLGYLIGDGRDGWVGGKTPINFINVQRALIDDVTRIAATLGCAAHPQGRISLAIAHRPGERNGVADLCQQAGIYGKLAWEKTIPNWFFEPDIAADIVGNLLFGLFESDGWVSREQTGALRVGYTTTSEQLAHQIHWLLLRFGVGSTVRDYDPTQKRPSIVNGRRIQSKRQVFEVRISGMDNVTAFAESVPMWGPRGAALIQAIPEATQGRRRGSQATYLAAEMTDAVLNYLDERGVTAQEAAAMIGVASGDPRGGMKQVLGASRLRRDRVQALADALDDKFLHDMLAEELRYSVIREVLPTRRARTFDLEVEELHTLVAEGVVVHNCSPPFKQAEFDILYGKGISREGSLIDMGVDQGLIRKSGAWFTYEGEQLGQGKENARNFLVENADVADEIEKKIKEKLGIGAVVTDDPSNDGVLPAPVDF
YopH PTP inh = blocks Yersinia enterocolitica YopH tyrosine phosphatase. fluorescence Ex485/Em525. inhibition, %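 (about 10 µM by stock and volumes)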. 140,000 compounds, 0.16% hits;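 active = inhibition of 50% or more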;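 also: controls were vehicle for no effect and minimum signal wells for full effect; inactives centre near -20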
Mtb growth = M. tuberculosis H37Rv growth inhibitors, H37Rv strain (AID 1626); M. tuberculosis H37Rv growth inhibition; higher % means a stronger effect; inhibition, % at 10 µM, or IC50 in µM where a hit was titrated; 220,000 compounds, 0.95% hits;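 active = confirmed in a dose series; inconclusive = inhibition above 80% but not taken into the dose series; inactive = below 80% or under 30% at every dose of the series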;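 also: bacteria incubated seven days before Alamar blue readout; 0% = bacteria only wells and 100% = bacteria with antibiotic wells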
Mtb bLac sens = beta-lactam sensitization of Mtb H37Rv. M. tuberculosis H37Rv growth with meropenem, percent inhibition; hits of this screen are not shown here. inhibition, % at 25 µM. 330,000 compounds, 0.27% hits. AID 434955;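 active = about 74% or more and at least 40 points above the plate without the antibiotic, then above 30% in a dose series; inconclusive = first-round hits that could not be retested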;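 also: growth measured after seven days incubation then overnight dye step; 0% = bacteria only wells and 100% = bacteria with antibiotic; twin plates without the antibiotic show which effects depend on it; some results filed as inactive read as strong as hits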
Arbovirus anti repeat = also measured in Arbovirus anti; calls as there; inhibition, %; measured here: 10K subset replicate screen; many hits read low in the repeat;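 first of two repeat runs on a subset; 0% = infected and 100% = uninfected wells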
Numbers without * were called inactive; ? = inconclusive; · = not tested or not shown. These rows are one share of the data; rates above refer to the full screens.

SMILES	Arbovirus anti	RecA intein inh	YopH PTP inh	Mtb growth	Mtb bLac sens	others
NC(=O)c1c(NC(=O)c2ccc(S(=O)(=O)N3CCOCC3)cc2)sc2c1CCCCC2	0	-17	-10	4%	1
COc1cc(CNc2nc3ccccc3[nH]2)cc(OC)c1OC	2	2.1	-16	1%	11
CC(C)Oc1cccc(C(=O)NC(=S)Nc2ccc(Cl)c(C(=O)O)c2)c1	3	-1.1	0	-11%	10
CCn1ccnc1CN1CCCC(C(=O)c2ccc3cc(OC)ccc3c2)C1 (centres undefined)	-5	1.8	·	11µM*	85
O=C(CSc1nnc(C2CCCCC2)o1)N1CCCCC1	3	-2.5	-45	4%	-1
COc1ccc(CN(C)CC(=O)Nc2cc3oc4ccccc4c3cc2OC)c(OC)c1	-8	4.7	-26	19%	7
Fc1ccccc1-c1nc(-c2cnccc2C(F)(F)F)no1	·	2.1	·	4%	-5
CCCC(=O)N1CCN(c2ccc(NC(=O)c3cc4ccccc4o3)cc2Cl)CC1	-41	1.8	33	11%	100
CC(=O)c1cccc(NC(=O)CN2C(=O)COc3ccc(S(=O)(=O)N4CCOCC4)cc32)c1	·	-0.7	·	·	-2
CCOc1ccc(-c2nnc(-c3ccccc3)o2)cc1	-7	-3.8	2	9%	99
O=C(Nc1cccc(-c2cccc(F)c2)c1)C1CCN(Cc2ccc(CO)o2)CC1	·	5.1	·	·	1
COc1ccc(C(=O)CSc2nc(C)cc(=O)[nH]2)cc1C	·	-1.3	·	·	8
C#CCOc1ccc(/C=C2\SC(=S)N(Cc3cccnc3)C2=O)cc1	0	1.4	-17	7%	1
CCOC(=O)Nc1ccc(C)cc1C	-4	1.2	-21	0%	-8
O=C(c1ccc(F)cc1)c1cc2ccc(O)cc2oc1=O	·	0.9	·	·	1
COc1nc(N)nc(N2CCOCC2)n1	-1	-0.1	-18	-15%	-10
NC(=O)CSc1nnnn1-c1ccc(OC(F)(F)F)cc1	2	-3.4	-35	-7%	1
COc1ccc(CNS(=O)(=O)c2ccc(C3CNC(=O)C3)cc2)cc1 (centres undefined)	1	-0.6	-5	13%	17
CC(=O)c1ccc(N2CCN(C(=O)/C=C/c3cccs3)CC2)cc1	5	2.3	·	1%	0
Cn1[nH]c(-c2ccccc2)c(/C=N/O)c1=O	-1	8.1	·	7%	2
Fc1ccc(CCNC(=S)Nc2ccc(F)cc2)cc1	22	-4.5	-22	10%	3
Cc1ccc(/C=N\NC(=O)c2cc(OCC(F)(F)F)ccc2OCC(F)(F)F)cc1	-3	-0.7	-12	-2%	-5
COC(C(=O)N/N=C(\C)c1ccc(C(C)(C)C)cc1)c1ccccc1 (centres undefined)	·	3.2	·	·	-3
O=C(NCc1cccs1)c1ccccc1F	0	0.8	-22	12%	2	Arbovirus anti repeat=-2
CC1(C)CC(=O)C=C(Nc2cccc(C(F)(F)F)c2)C1	·	-0.4	·	·	-10
CC(C)(C)c1nc(SCC(=O)NCc2cccs2)c2ccccc2n1	5	12	·	3%	5
C[N+](C)(C)CC#CCN1CCCC1=O	·	1.1	·	-12%	3
CSc1ccc(CN(C)CC(=O)NCc2ccccc2)cc1	-8	3.5	·	4%	-1
COc1cccc(C(=O)Oc2ccccc2/C=C\C(=O)c2cc3ccccc3o2)c1	-37	26	-15	3.4µM*	·
O=C(CN1CCN(c2ccccc2F)CC1)NC(=O)NCc1ccccc1	11	·	·	0%	-13
COc1ccccc1-c1cc(C(F)(F)F)nc(S(=O)(=O)CCCC(=O)N2CCOCC2)n1	-31	48*	-37	7%	94
CCOC(=O)c1sc2nc(CSc3ccccc3)[nH]c(=O)c2c1C	3	1.8	·	-2%	-7
O=C(CN1C(=O)c2ccc([N+](=O)[O-])cc2C1=O)NCc1ccco1	7	-3.9	·	0%	2
C=CCn1cn[nH]c1=S	4	2.0	·	2%	8
O=C1NCCN(Cc2ccoc2)C1CC(=O)N(Cc1ccccc1)CC1CCC1 (centres undefined)	10	2.0	·	0%	-2
O=C(N1CCOCC1)N(Cc1cccs1)C1CCCC1	4	-1.1	-39	-7%	13

Two compounds picked at random from those above, as already listed:
SMILES	Arbovirus anti	RecA intein inh	YopH PTP inh	Mtb growth	Mtb bLac sens	others
O=C1NCCN(Cc2ccoc2)C1CC(=O)N(Cc1ccccc1)CC1CCC1 (centres undefined)	10	2.0	·	0%	-2
CC1(C)CC(=O)C=C(Nc2cccc(C(F)(F)F)c2)C1	·	-0.4	·	·	-10

(list continues)
SMILES	Arbovirus anti	RecA intein inh	YopH PTP inh	Mtb growth	Mtb bLac sens	others
Brc1ccc(CNCCCSc2ncccn2)cc1	·	1.8	·	·	-4
COc1ccc(/C=C2\C(=O)NCC(=O)N2Cc2ccccc2)cc1	-17	-2.5	-16	-7%	1
COc1ccc(-c2[nH]ncc2CN(C)Cc2cc(C)[nH]n2)c(F)c1	5	0.9	·	-4%	1
COc1cccc(NC(=O)Cn2c(CCC(=O)O)ccc2-c2ccccc2)c1	-2	6.6	·	-3%	-3
CCOC(=O)c1c(-c2ccc(C)o2)csc1NC(=O)CSc1nnc(C)s1	7	·	4	-3%	8
CC(=O)Nc1ccc(S(=O)(=O)N(C)CC(=O)OCC(=O)N2CCN(C(=O)c3ccco3)CC2)cc1	·	-0.3	·	·	-4
O=c1c(/C=N/O)coc2ccc(Cl)cc12	·	0.4	·	11%	-2
CCOC(=O)c1csc(NC(=O)c2ccc(OC)c(OC)c2)n1	-8	1.9	-45	2%	11
CC(C)CCOc1ccc(C(=O)C[N+]2(C)CCOCC2)cc1	-4	-1.4	-10	-8%	-7
Cc1ccccc1NC(=O)c1cccc(S(=O)(=O)Nc2cccc(C(=O)O)c2)c1	·	-2.3	·	·	9
CC(Cc1ccccc1)[n+]1cc(/N=C(\[O-])Nc2ccccc2)on1 (centres undefined)	-7	-0.8	2	-10%	4
COc1ccc(N2C(=O)CC(N3CCN(c4ccc(S(C)(=O)=O)cc4)CC3)C2=O)cc1 (centres undefined)	1	-1.0	-4	-7%	-3
COc1cc(OC)c(S(=O)(=O)Nc2ccccc2C(=O)O)cc1S(=O)(=O)Nc1ccccc1C(=O)O	·	-1.6	·	·	5
N#Cc1c(C(F)(F)F)cc(-c2cccs2)nc1SCC(=O)O	·	-0.5	·	-3%	1
CC(=O)Nc1ccc(NC(=O)CN(c2ccc(F)cc2)S(=O)(=O)c2ccc3c(c2)OCCO3)cc1	-5	3.4	-13	0%	?
CCN1CCN(c2ccc(S(=O)(=O)N3CCCCC3)cc2NC(=O)c2ccc([N+](=O)[O-])s2)CC1	·	-1.2	·	·	100
COc1ccc(-c2ccc(/C=C3/C(=N)N4C=CSC4=NC3=O)o2)c([N+](=O)[O-])c1	-12	11	2	7%	-1
Cc1c(C(N)=O)sc2nc(-c3ccccc3)cn12	7	-2.3	-39	·	-12
O=C(COc1ccc(Cl)cc1Cl)N(Cc1ccco1)C1CCS(=O)(=O)C1 (centres undefined)	9	0.7	-25	0%	1
COc1ccc(CNC(=O)c2nc(S(=O)(=O)Cc3ccccc3)ncc2Cl)cc1	·	82*	·	·	5
CCCc1[nH]n(-c2nc3ccccc3s2)c(=O)c1C=NCCCN(CC)CC	2	3.5	·	-5%	-5
COCCN(CC(=O)NCc1ccccc1)C(=O)CCC(=O)Nc1nccs1	-1	1.9	10	5%	2
CS(=O)(=O)C1=NSC2=NC(=O)/C(=C\c3cccn3-c3ccc(Cl)cc3)C(=N)N21	18	-9.4	-9	-11%	4
COc1ccc(-c2nnc(SCC(=O)NCCc3ccc(S(N)(=O)=O)cc3)o2)cc1OC	·	2.2	·	-9%	-4

Overlap with the part before: 5 entries, followed by the next part.
SMILES	Arbovirus anti	RecA intein inh	YopH PTP inh	Mtb growth	Mtb bLac sens	others
COc1ccc(CNC(=O)c2nc(S(=O)(=O)Cc3ccccc3)ncc2Cl)cc1	·	82*	·	·	5
CCCc1[nH]n(-c2nc3ccccc3s2)c(=O)c1C=NCCCN(CC)CC	2	3.5	·	-5%	-5
COCCN(CC(=O)NCc1ccccc1)C(=O)CCC(=O)Nc1nccs1	-1	1.9	10	5%	2
CS(=O)(=O)C1=NSC2=NC(=O)/C(=C\c3cccn3-c3ccc(Cl)cc3)C(=N)N21	18	-9.4	-9	-11%	4
COc1ccc(-c2nnc(SCC(=O)NCCc3ccc(S(N)(=O)=O)cc3)o2)cc1OC	·	2.2	·	-9%	-4
CC(C)(C)C(=O)NCC12C=CC(O1)C1C(=O)N(c3ccccc3)C(=O)C12 (centres undefined)	7	0.3	-8	4%	-4
CC(O)[C@H]1CNC(=S)N1CCc1cccc(F)c1 (some centres undefined)	·	-2.0	·	19%	-7
CC(C)(C)OC(=O)[C@H](Cc1ccccc1)NC(=O)c1nc[nH]c1C(=O)NCc1ccccc1	-12	0.9	·	7%	88
COc1ccc(C(=O)Nc2ccc(C(=O)N3CCCCC3)cc2)cc1OC	·	0.0	·	·	-5
CCOC(=O)c1nn(-c2cccc(C)c2)cc1C(=O)c1ccccc1	-4	7.2	16	·	16
CNC(=O)c1c(NC(=O)CCS(=O)(=O)c2ccc(C)cc2)sc2c1CCN(C(=O)OC)C2	·	-3.0	·	·	-11
O=C(NC(=S)Nc1ccccc1O)c1ccccc1Cl	-13	1.1	·	?	75
Cc1cc(NS(=O)(=O)c2ccc(NC(=O)C(C)Oc3ccccc3Cl)cc2)no1 (centres undefined)	·	3.3	·	·	-11
Cc1[nH]n(-c2cccc(Cl)c2)c(=O)c1-c1ccccc1	20	-1.8	-29	0%	1
CN(C)c1ccc(N=Nc2ccccc2C(=O)OCC(=O)NCC2CCCCC2)cc1	-18	10	-17	7.7µM*	94
CN(CC(=O)Nc1ccc(Cl)c(Cl)c1)Cc1nnc(-c2ccc(F)cc2)o1	6	-0.9	·	16µM*	52
COc1ccccc1N1CCN(Cc2nc(N)nc(Nc3ccccc3)n2)CC1	5	2.8	-25	-2%	58

Next part; it opens with the two that closed the last part.
SMILES	Arbovirus anti	RecA intein inh	YopH PTP inh	Mtb growth	Mtb bLac sens	others
CN(CC(=O)Nc1ccc(Cl)c(Cl)c1)Cc1nnc(-c2ccc(F)cc2)o1	6	-0.9	·	16µM*	52
COc1ccccc1N1CCN(Cc2nc(N)nc(Nc3ccccc3)n2)CC1	5	2.8	-25	-2%	58
O=C(NC1CC1)c1ccc2c(c1)C1C3CCC(C3)C1C(c1ccccc1)N2 (centres undefined)	-25	16	-8	12%	?
CCCCn1c(SCC(=O)Nc2sc3c(c2C(N)=O)CCC3)nnc1-c1ccccc1	·	-10.0	-29	4%	-17
O=C(Nc1c(-c2ccccc2)nc2ncccn12)c1cc2ccccc2oc1=O	3	1.4	-30	·	86
COc1ccc(-c2c[n+](CC(=O)OC3CC(C)CCC3C(C)C)c3n2CCC3)cc1 (centres undefined)	3	0.8	·	?	100
COc1ccc(-c2nn(-c3ccccc3)cc2/C=C(\C#N)S(=O)(=O)c2ccccc2)cc1OC	-20	-2.7	-12	0%	3
COc1ccc(-c2nc(CN3CCC(C(=O)N4CCOCC4)CC3)c(C)o2)cc1C	·	4.3	·	·	-10
CCN1C(=O)/C(=C/N2CCc3ccccc3C2)SC1=S	·	6.9	·	1%	4
Cc1nnc(SCCn2c(N3CC(C)CC(C)C3)nc3c2c(=O)[nH]c(=O)n3C)s1 (centres undefined)	1	-0.6	-37	-12%	-3
O=C(c1ccco1)N1CCN(C(=O)N2CCCCC2)CC1	-3	-5.2	·	2%	6
CCOC(=O)C1CCN(C(=O)N(C)C)CC1	-1	-1.0	13	-10%	-12
CCN(CC(=O)Nc1ccc(Br)c(C)c1)CC(=O)NC(C)C	5	2.6	·	-4%	-6
COc1ccc(CCC(C)Nc2ccccc2F)cc1 (centres undefined)	-9	3.6	-11	13%	-1
CC12CCC(C(=O)Nc3cccc4ccccc34)(C1Br)C2(C)C (centres undefined)	16	2.8	-29	-1%	3
CC(=O)Nc1ccc(NC(=O)C2CCC(N3C(=O)C4C5C=CC(C6CC56)C4C3=O)CC2)cc1 (centres undefined)	·	-0.2	·	·	-3
O=C(O)CCc1ccc(-c2ccc(F)cc2)n1CC(=O)O	8	0.5	-17	-9%	-21

Source: PubChem BioAssay (several laboratories)
